UCH37 DUB inh: human UCH37 deubiquitinating enzyme inhibition; inhibition, % (test concentration not listed); purified proteasome/UCH37, Ub-AMC cleavage fluorescence; Q9Y5K5; AID 588478; 330,000 compounds, 0.33% hits;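 active = mean of two replicates above 20%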;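 note: 0% = compound-free wells with enzyme and 100% = wells lacking proteasome; stock transfer was 100 nL into about 20 µL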
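Material: human UCH37 enzyme supplied as purified proteasome complex. Measure: % inhibition of Ub-AMC cleavage fluorescence. Medium: pH 7.4 Tris-HCl (50 mM) with ovalbumin, ATP-MgCl2, DTT. Times: 30 min preincubation with enzyme, 25 min cleavage at room temperature. Detection: AMC fluorescence intensity at 355/460 nm.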
B2AR ag: activates human beta-2 adrenergic receptor causing internalization; 340,000 compounds, 0.43% hits; response, % (test concentration not listed); P07550; Am2.2-beta2AR cells, FAP receptor internalization, flow cytometry; reference of the scale not given here; AID 504454;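 active = response above a set limit, near 3 SD of response in nonfluorescent compounds, cut at about 42% in these data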;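 note: stock transfer was 100 nL into about 11 µL; a reference agonist was the positive control; negative values mostly stem from fluorescent compounds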
Target sequence (P07550 whole entry, looked up): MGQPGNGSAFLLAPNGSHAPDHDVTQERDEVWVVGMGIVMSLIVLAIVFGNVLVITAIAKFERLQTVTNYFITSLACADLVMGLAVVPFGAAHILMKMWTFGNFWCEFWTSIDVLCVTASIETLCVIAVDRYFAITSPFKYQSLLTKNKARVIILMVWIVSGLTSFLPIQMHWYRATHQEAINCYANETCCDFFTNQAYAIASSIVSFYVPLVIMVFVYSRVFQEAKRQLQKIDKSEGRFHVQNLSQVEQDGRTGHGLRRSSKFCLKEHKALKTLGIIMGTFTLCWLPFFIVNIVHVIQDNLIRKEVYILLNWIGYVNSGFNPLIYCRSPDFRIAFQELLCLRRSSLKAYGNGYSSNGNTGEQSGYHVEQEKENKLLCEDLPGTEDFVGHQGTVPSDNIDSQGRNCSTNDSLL
HNF4A DNA FP: change in binding of human HNF4 alpha to DNA; P41235; HNF4a-FITC DNA binding, fluorescence polarization, 1 h; activity change, % at 10 µM; 360,000 compounds, 0.3% hits; AID 1224865; in the data active = activity change above about 30%, passing the limit was not always enough;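 note: controls were the assay level and a saturating level of protein; the project sought stronger binding though the title names inhibitors; some compounds called inactive have numbers as strong as hits; positive values seem to mean higher polarization but the record does not say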
Target sequence (P41235 whole entry, looked up): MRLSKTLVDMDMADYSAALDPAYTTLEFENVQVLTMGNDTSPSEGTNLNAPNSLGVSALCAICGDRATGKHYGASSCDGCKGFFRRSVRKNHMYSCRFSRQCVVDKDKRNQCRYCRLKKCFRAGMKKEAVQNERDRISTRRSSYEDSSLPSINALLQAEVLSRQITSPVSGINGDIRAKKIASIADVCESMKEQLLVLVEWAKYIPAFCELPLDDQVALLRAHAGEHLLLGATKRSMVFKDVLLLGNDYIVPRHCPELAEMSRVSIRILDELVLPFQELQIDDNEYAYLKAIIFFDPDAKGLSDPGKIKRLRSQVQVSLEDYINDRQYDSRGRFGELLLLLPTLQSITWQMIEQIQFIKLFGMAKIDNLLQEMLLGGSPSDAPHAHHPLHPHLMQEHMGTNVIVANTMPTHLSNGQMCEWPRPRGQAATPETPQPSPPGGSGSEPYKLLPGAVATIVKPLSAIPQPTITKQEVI
LANA-H2A inh: blocks KSHV LANA binding to histone H2A/H2B | inhibition, % (concentration not given with the values) | cell-free LANA-H2A/H2B peptide, fluorescence polarization | Q9QR71 | 320,000 compounds, 0.6% hits | AID 2629; in the data active = inhibition mostly above about 10%, no sharp cut-off; inactive = mostly below about 6.7%;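 note: stock transfer was 7.5 nL into about 10 µL; 0% = median of vehicle wells and 100% = median of positive control wells; one replicate is shown; the record names a cut of 25% in any replicate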
Vif TR-FRET: inhibitors of Vif binding to APOBEC3G peptide, primary screen, biochemical, TR-FRET, GST-Vif 1-94, biotin-A3G peptide, dose response retest (AID 1117319); 260,000 compounds, 0.57% hits; inhibition, %; hits with a dose series show IC50 in µM; TR-FRET GST-Vif / biotin-A3G peptide binding; higher % means a stronger effect; test concentration not given here; strong numbers were not always called active;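 active = above the screen mean plus three standard deviations and confirmed in dose response; inconclusive = results disagree or hit not tested in dose response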;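 note: Vif residues 1-94 fused to GST binding biotinylated APOBEC3G peptide 110-148; 0% = full assay without inhibitor and 100% = GST in place of GST-Vif; retest series ran down from 100 µM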
Ecoli growth: blocks Escherichia coli growth | 330,000 compounds, 0.21% hits | OD600, 23 h; active compounds read low | AID 1053175 | OD600 absorbance (no concentration beside the values);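 active = OD600 absorbance below the run mean of sample wells minus 3.6 SD, in any replicate, cut at about 0.56 in these data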;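 note: stock transfer was 300 nL into about 60 µL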
A1 inh: inhibitors of the anti-apoptotic protein A1, read as caspase activation; AID 2462; caspase activation, % (concentration not given with the values); 330,000 compounds, 0.066% hits; MEF A1-2A-BIM cells, Caspase-Glo 3/7 luminescence, 3 h; percent of clofoctol response, vehicle zero;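 active = over half of replicate activation scores above 10%, or exactly half above 10 with the replicate mean above 10; inconclusive = replicate mean below 10 yet half the replicates above 10; inactive = over half of replicates below 10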;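 note: wells of about 30 µL received 50 nL stock; many hits fall short of the cut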
Active calls of the source: *; ? = inconclusive; . = not tested or not shown. Random draw from the library, and some 2.1% of all compounds hit somewhere here.

SMILES	UCH37 DUB inh	B2AR ag	HNF4A DNA FP	LANA-H2A inh	Vif TR-FRET	Ecoli growth	A1 inh
Cc1ccccc1N1CC(C(=O)Nc2ccc(S(=O)(=O)N3CCCCC3)cc2)CC1=O (stereo not drawn)	4.7	1	-2.5	4.3	.	0.66	0.1
O=C(NC1CCCCC1)c1cc2nc(-c3ccco3)cc(C(F)(F)F)n2n1	-31	-4	-0.1	-13	6%	0.77	.
Cn1c(C(=O)NCc2cccnc2)cc2sccc21	5.3	20	2.4	-6.7	3%	0.69	0.0
O=C(N/N=C/c1ccc[nH]1)c1ccccc1OCc1ccc(F)cc1	.	7	2.9	-4.1	.	.	1.0
COC(=O)c1cn(NC(=O)Cc2cccc(C(F)(F)F)c2)c(=O)c2ccccc12	1.2	10	-2.4	-2.1	-3%	0.69	0.8
CN(CCCCCCN(C)Cc1ccccc1O)Cc1ccccc1O	5.0	6	2.5	2.8	-1%	0.67	1.2
CC(C)CNC(=S)NC1CC2CCCC(C1)N2Cc1ccco1 (stereo not drawn)	1.2	-4	-5.3	-2.0	1%	0.62	1.0
CCn1nc(C)c(CNC(=O)c2cc(COc3cncc(Cl)c3)on2)c1C	4.0	-1	-2.6	0.9	.	0.66	0.0
N#Cc1cccc(S(=O)(=O)NCC(=O)NCc2ccc3c(c2)OCO3)c1	-1.1	-10	-1.3	1.0	-7%	0.68	1.5
CCOc1ccc(C2=Nn3c(nnc3-c3ccccc3)SC2)cc1Cl	1.2	-6	0.0	-2.0	9%	0.74	0.1
Cc1ccc(N(Cc2ccccc2)C(=O)c2cccc(F)c2)cc1	4.6	3	2.6	-7.4	.	0.7	-2.2
COc1ccc(-c2cc(C#N)nc(Cl)n2)cc1	-102	28	1.1	-1.0	.	0.64	-0.5
CC(=O)Nc1ccc(OCC(O)Cn2nc(C)nc2C)cc1 (stereo not drawn)	2.4	17	-3.1	-0.7	-4%	0.62	-0.3
COCCn1c(-c2ccc(OC)cc2)nc2ccccc21	4.4	-11	4.1	-0.1	65%	0.68	-1.2
CN(Cc1ccc(Cl)cc1Cl)C(=O)c1cccc(S(=O)(=O)NCc2ccccc2)c1	-2.1	-9	0.3	.	.	0.72	.
O=C(Nc1ccccc1F)Nc1ccccc1F	3.7	-9	-2.7	2.6	4%	0.71	-6.5
COC(=O)c1sc2nc(SCC(=O)N(C)c3ccccc3)n(N)c(=O)c2c1C	6.0	-4	0.1	-9.2	-2%	0.69	-0.6
CCSc1nnc(NC(=O)CSc2c(Cl)cccc2Cl)s1	0.9	5	-3.0	3.2	-6%	0.72	-0.6
COc1ccc(OC(=O)Cc2cccc3ccccc23)cc1	4.7	-5	-0.9	-3.6	.	0.71	-0.2
O=C(CN(CC(=O)N1CCOCC1)S(=O)(=O)c1ccc(Br)s1)N1CCOCC1	1.1	-3	-2.1	0.0	.	0.67	0.1
CCc1ccccc1NC(=O)NCc1ccc2c(c1)OCO2	.	-3	-0.5	-2.5	.	.	0.6
CC(=O)Nc1ccc2c(c1)nc(C)n2Cc1ccccc1	2.6	3	3.2	-1.4	2%	0.68	1.0
COCCNC(=S)N1CCc2cc(OC)c(OC)cc2C1c1cccs1 (stereo not drawn)	2.6	0	-1.5	4.1	-5%	0.69	0.3
Cc1ccc2nc(C3CCN(CC(=O)Nc4ccc5c(c4)OCCO5)CC3)[nH]c2c1	2.6	16	-1.8	-0.7	65%	0.61	-0.5
COc1ccc(S(=O)(=O)N2CCCCCC2)cc1NC(=O)CN(C)Cc1ccc2c(c1)OCO2	1.0	4	0.9	1.7	.	0.71	-1.1
CCS(=O)(=O)CCSc1nc2ccccc2o1	1.4	-11	0.4	-2.4	-3%	0.7	0.2
COc1ccc(CNc2nc3ccccc3n2C)c(OC)c1	4.7	-9	3.0	9.0	.	0.71	-7.0
Cc1ccc(S(=O)(=O)CCSc2ccc(C(F)(F)F)cn2)cc1	2.1	0	2.5	0.7	1%	0.65	0.2
Cc1cc(C)c2c(-n3cccc3)c(C(=O)NNS(=O)(=O)c3ccc(Br)cc3)sc2n1	1.7	-3	-0.9	-1.4	0%	0.74	0.4
O=C1CC(C(=O)Nc2nccs2)C(c2ccccc2)O1 (stereo not drawn)	1.2	-3	-1.1	2.9	27%	0.62	1.0

Three entries already listed, sorted by the value under Ecoli growth, smallest number first:
Structure	UCH37 DUB inh	B2AR ag	HNF4A DNA FP	LANA-H2A inh	Vif TR-FRET	Ecoli growth
O=C1CC(C(=O)Nc2nccs2)C(c2ccccc2)O1 (stereo not drawn)	1.2	-3	-1.1	2.9	27%	0.62
COCCNC(=S)N1CCc2cc(OC)c(OC)cc2C1c1cccs1 (stereo not drawn)	2.6	0	-1.5	4.1	-5%	0.69
COc1ccc(S(=O)(=O)N2CCCCCC2)cc1NC(=O)CN(C)Cc1ccc2c(c1)OCO2	1.0	4	0.9	1.7	.	0.71

Next section:
SMILES	UCH37 DUB inh	B2AR ag	HNF4A DNA FP	LANA-H2A inh	Vif TR-FRET	Ecoli growth	A1 inh
COc1ccccc1C(=O)Nc1ccccc1C(=O)NC1CCCCC1	1.8	12	0.2	-0.3	5%	0.7	1.1
N#Cc1ccc(OCC(=O)NCC2COc3ccccc3O2)cc1 (stereo not drawn)	0.0	-2	0.9	4.0	-3%	0.65	0.3
CCOC(=O)c1sc(NC(=O)CN2CC(C)OC(C)C2)nc1C (stereo not drawn)	0.5	6	1.5	2.2	.	0.69	-0.1
CC(NCC(=O)NC(=O)NCCC1=CCCCC1)c1ccc(S(N)(=O)=O)cc1 (stereo not drawn)	19	1	4.3	.	.	0.61	.
O=C(NCc1ccco1)c1ccc(=O)[nH]n1	0.7	2	-0.4	2.6	?	0.76	-0.3
C/C(=N/NC(=O)CNC(=O)COc1ccccc1)c1ccco1	.	-11	-3.8	3.3	-4%	.	-0.8
O=C(OCC#CCSc1nnc(-c2ccccc2)o1)c1ccco1	4.2	-1	0.2	-4.4	7%	0.72	-1.0
Cc1ccc(OCC(O)CN2CCOCC2)cc1 (stereo not drawn)	-1.1	-4	8.0	2.7	.	0.67	0.7
Cc1cc(C)c([C@@H]2C[C@H]3CN(C4CCCC4)C(=O)[C@]34CCCN24)c(-n2cccn2)c1	5.5	7	-6.4	5.1	30%	0.69	0.3
CCOC(=O)C(Cc1ccccc1)NC(=O)Cn1nnc(-c2ccccc2)n1 (stereo not drawn)	-3.9	7	39*	-2.0	1%	0.66	0.4
COC(=O)C1=C(C)NC(=O)C1(Nc1nccs1)C(F)(F)F (stereo not drawn)	2.5	-8	-1.3	0.6	0%	0.7	0.2
C=CCn1c(CSCc2ccc(Cl)cc2)nnc1SCC(=O)NCc1ccccc1	2.6	-8	3.2	-1.2	0%	0.65	0.2
O=C(COc1ccc(F)cc1)N(Cc1ccco1)C1CCS(=O)(=O)C1 (stereo not drawn)	0.8	4	0.7	6.5	.	0.66	0.6
COc1ccc(S(=O)(=O)N2CCCCCC2)cc1C(=O)N(C)CCOc1ccc(Cl)cc1	0.9	7	-0.3	-0.6	-1%	0.66	-0.3
CCCN1CCC(=O)N(CCOc2ccccc2)CC1	4.4	-3	1.8	4.7	.	0.67	0.6
CCOC(=O)c1ccc(NC(=O)c2nn(CC)cc2Br)cc1	0.9	-5	2.0	-4.3	-1%	0.66	-1.6
Cc1onc(NC(=O)NC(=O)c2ccccc2F)c1Br	0.9	-5	-1.5	-1.8	-6%	0.65	0.5
COc1ccc(S(=O)(=O)NCC2CCCO2)cc1NC(=O)c1ccccc1F (stereo not drawn)	-29	-4	4.2	-4.7	.	0.64	0.9
CC1c2ccsc2CCN1S(=O)(=O)c1cccs1 (stereo not drawn)	7.3	0	1.1	2.4	8%	0.66	-0.2
Cc1ccc(N2/C(=N/c3nc(C)cc(C)n3)NC(=O)CC2C(=O)O)cc1 (stereo not drawn)	-1.7	-1	-2.6	-0.2	?	0.69	0.2
O=c1c2[nH]c3ccccc3c2ncn1Cc1ccco1	-0.5	-2	-3.9	-1.6	-6%	0.72	0.0
COc1ccc(-n2c(SCC(=O)Nc3nccs3)nc3sc4c(c3c2=O)CCN(C)C4)cc1	0.3	1	5.8	-0.3	?	0.69	-1.1
CC(=O)CC(=O)Nc1ccc2ccccc2c1	4.3	-4	0.4	2.9	15%	0.64	1.3
CC1(C(=O)OCC(=O)NCc2ccc(Cl)cc2)CC1(Cl)Cl (stereo not drawn)	2.6	-3	-2.0	4.0	4%	0.67	0.5
Cc1cc(NC(=O)/C=C/c2cccc(F)c2)n(-c2nc3ccccc3[nH]2)n1	-7.0	-15	4.8	-0.8	.	0.73	-0.9
O=C(CSc1nc2ccc(Nc3nc(N4CCCC4)nc(N4CCCC4)n3)cc2s1)NCc1ccco1	1.1	9	4.1	-2.9	2%	0.72	-0.8
O=C(Nc1ccccc1C(=O)NC(Cc1ccccc1)C(=O)O)c1ccco1 (stereo not drawn)	0.7	8	-1.0	3.7	2%	0.63	-0.9
CCn1c2ccccc2c2cc(NC(=O)c3ccc(C)c([N+](=O)[O-])c3)ccc21	9.4	6	4.3	1.5	8%	0.7	0.7
Cc1noc(C)c1CSCC(=O)Nc1cc(S(=O)(=O)N2CCOCC2)ccc1OCC(F)(F)F	1.2	5	1.7	3.7	-3%	0.65	0.6
O=C(NCc1cccc(Cl)c1)C1CCC(=O)N(CCN2CCOCC2)C1 (stereo not drawn)	0.0	0	1.2	-1.7	.	0.69	0.7
CC(=O)N(Cc1ccco1)c1nc(C(=O)Nc2ccc(Cl)cc2)c(C)s1	2.6	-8	1.6	-2.5	4%	0.7	-0.7
Cc1sc2nc(-c3ccc(Br)cc3)oc(=O)c2c1C	-13	5	3.5	1.2	-6%	0.61	-1.4
O=C(OCC(=O)N(C1CCCCC1)C1CCCCC1)c1ccc(Cl)nc1	-0.9	9	-0.2	-4.1	17%	0.65	-0.3
CN(C)CCn1c2c(c(SCC(=O)NCc3ccccc3)nc1=O)CCCC2	1.6	-4	-0.1	-3.1	-3%	0.72	-0.8
CCCCCC(=O)NC(=S)Nc1ccc(N2CCOCC2)cc1	5.3	4	0.3	-3.7	.	0.68	0.0
CCc1cccc2c(C(=O)COC(=O)c3ccccc3)c[nH]c12	4.1	4	-2.2	-3.6	.	0.09*	-2.2
CCC[C@@H]1CCCO[C@@](C(=O)NCc2ccccn2)(C(F)(F)F)C1	0.2	-15	-4.9	-1.1	.	0.74	-0.3
O=C(O)C1(Nc2ccccc2)CCCC1	-0.3	-1	3.4	.	-5%	0.62	.
C#CCOCCOCCOCCNc1nc(N2CCN(C(=O)C([C@@H](C)O)n3cc([C@@H](N)CCCCN)nn3)CC2)nc(N2CCN(C(=O)[C@H](CCCCN)n3cc([C@@H](N)CC(N)=O)nn3)CC2)n1 (stereo partly drawn)	4.2	-6	16	-2.0	.	.	0.9
COc1ccc(N=CC2=C(O)CC(C)(C)CC2=O)cc1	14	-8	1.0	-0.7	-4%	0.77	-0.5
NC(=O)c1sc2cc(C(F)(F)F)cnc2c1-c1cccs1	-0.4	-6	-2.7	0.4	-6%	0.68	0.2
O=C(NCCCNCc1ccccc1)c1ccc(/C=N/O)nc1	.	-1	-3.8	-1.1	-1%	.	.
Cn1nc(C(C)(C)C)cc1C(=O)O	2.1	0	1.0	-1.1	.	0.67	0.2
CCN(CC)C(=O)c1ccc(NS(=O)(=O)c2ccccc2)cc1	3.2	3	-2.7	7.5	9%	0.69	0.2
COc1ccc(C(C(=O)NC2CCCCC2)N(C(=O)c2sc(C)nc2C)c2ccc(C(C)=O)cc2)cc1 (stereo not drawn)	5.2	-3	2.2	4.0	2%	0.67	0.6
